Source: PubChem (National Center for Advancing Translational Sciences (NCATS))
RE007 growth inh: less growth of the S. pombe RE007 Vpr strain; S. pombe RE007 Vpr strain, BacTiter-Glo ATP luminescence, 24 h; control for the full effect not named in the record; Potency, µM (titrated, usually from 92.2 µM), without a hit: at the top dose activity change, negative = less growth; 360,000 compounds, 0.21% hits; active = well fitted falling curve with a large enough effect; inconclusive = small, poorly fitted or top-dose-only effect; inactive = no such curve, though single readings can be large or run the other way;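 note: % is set by controls: 0 for no effect and ±100 for the full control effect; nearly all actives have a fitted effect of over 50% in size; the assay follows cell death caused by Vpr and the record does not say whether a fall means rescue or toxicity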
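Fission yeast strain RE007, carrying one chromosomally integrated HIV-1 vpr copy, was seeded at OD 0.01 in PMG+AL medium with 23 nL pinned compound. After 24 h at 30 °C and 99% humidity, viability was read by BacTiter-Glo luminescence.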
SARS PLpro yeast: inhibitors of SARS-CoV papain-like protease in yeast. Potency, µM (top dose mostly 32.9 µM), inactives show at the highest dose activity, positive = growth rescue. 330,000 compounds, 0.19% hits. S. cerevisiae expressing SARS-CoV PLpro, growth rescue; control for the full effect not named in the record; active means well fitted rising curve with a large enough effect; inconclusive means small, poorly fitted or top-dose-only effect; inactive means no such curve, though single readings can be large or run the other way; note: 0% is about no effect; nearly all actives have a fitted effect of over 55% in size; growth read by luminescence after 48 h
2A StopGo: FMDV 2A StopGo reporter, luciferase signal; human cells with a luciferase reporter of 2A StopGo recoding; control for the full effect not named in the record; AID 1159524; 410,000 compounds, 1.2% hits; Potency, µM (series often up to 57.9 µM), without a hit: at the highest dose signal change, negative = less light; active = well fitted falling curve with a large enough effect; inconclusive = small, poorly fitted or top-dose-only effect; inactive = no such curve, though single readings can be large or run the other way; tested in HEK293T cells; note: % is set by controls: 0 for no effect and ±100 for the full control effect; nearly all actives have a fitted effect of over 45% in size; luciferase light after 4 h
The depositor's hits bear a star; ? = inconclusive; [ ] = remark or other dose. Potency is the fitted concentration of half-maximal effect. Only part of the results is shown, so the mix of outcomes need not match the whole.

SMILES	RE007 growth inh	SARS PLpro yeast	2A StopGo
Cn1cnc([N+](=O)[O-])c1C(=O)Nc1cccc([N+](=O)[O-])c1	10%	-4%	-9%
O=C(COc1ccccc1Cl)NNC(=O)c1ccc(-n2cncn2)c([N+](=O)[O-])c1	1%	5%	-10%
Cc1ccc(S(=O)(=O)N2[C@@H](c3ccc(F)cc3)C(C(=O)O)=CC[C@H]2c2ccc3c(c2)OCO3)cc1	1%	1%	9%
COc1ccc(NC(=O)CSc2nnc3n2CCCCC3)cc1S(=O)(=O)N1CCOCC1	-2%	-2%	2%
CCN(CC)S(=O)(=O)c1ccc(C(=O)Nc2nnc(CSC)o2)cc1	-3%	1%	-8%
O=C1CN(C(=O)CNC(=O)c2cccc(Cl)c2)c2ccccc2N1	-2%	1%	-2%
CC1CCCCC12NC(=O)N(CC(=O)OCC(=O)N(C)C1CCCCC1)C2=O (stereo not drawn)	-3%	8%	-8%
O=C(COC(=O)C1CC2CCCC(C1)C2=O)NC(=O)c1ccccc1 (stereo not drawn)	2%	-2%	-13%
N#Cc1ccc(COC(=O)c2cc(=O)c3ccccc3o2)cc1	0%	-1%	-2%
NC(=O)COC(=O)c1c2c(nc3ccccc13)CCCCC2	3%	-4%	-24%
CCCCN(C(=O)c1ccc(-c2ccc([N+](=O)[O-])cc2)o1)c1c(N)n(CC(C)C)c(=O)[nH]c1=O	6%	-1%	-17%
C[C@H](NC(=O)c1nc[nH]c1C(=O)N[C@@H](CCCCN)C(=O)OC(C)(C)C)C(=O)OC(C)(C)C	-5%	1%	-3%
CCCCNC(=O)CN(Cc1ccco1)S(=O)(=O)c1ccc(C(C)=O)cc1	-22%	9%	22%
CC(=O)c1c(C)oc2ccc(N(C(C)=O)S(=O)(=O)c3cccc([N+](=O)[O-])c3)cc12	-8%	1%	-5%
CCOC(=O)[C@@H]1[C@H]2COc3ccc(Br)cc3[C@H]2N2C(=O)N(c3cccc(C)c3)C(=O)[C@]12C	6%	8%	-16%
CN(C)C(=O)CCc1ccc2c3c([nH]c2c1)[C@]1(C)[C@@H](C(=O)N2CCOCC2)C[C@H](CC(=O)NCCN2CCOCC2)C(=O)N1CC3	-8%	-3%	-16%
Cc1cccc(C)c1NC(=O)c1ccc(N2CCCC2=O)cc1	3%	-5%	-24%
CSC(=S)N/N=C(\C)c1ccccc1	-2%	-2%	0%
C[C@H](CO)N1C[C@H](C)[C@@H](CN(C)C(=O)Nc2ccc(C(F)(F)F)cc2)Oc2c(NC(=O)Nc3ccccc3)cccc2C1=O	14%	5%	-12%
Cc1ncc([N+](=O)[O-])n1CC(=O)Nc1ccc2c(c1)OCO2	6%	-1%	2%
CC(C)=C[C@@H]1C[C@H](C)[C@H]2CC[C@H](C)c3c(O)c(O)c(C)c1c32	-5%	2%	-19%
CC(NC(=O)COC(=O)c1ccc2c(=O)n3c(nc2c1)CCCCC3)c1ccccc1 (stereo not drawn)	7%	5%	-17%
CC(C)NC(=O)N(C)C[C@H]1Oc2ccc(NC(=O)c3ccncc3)cc2C(=O)N([C@H](C)CO)C[C@@H]1C	0%	-4%	2%
CC1CC(C)CN(C(=O)COC(=O)c2ccc3c(c2)OCO3)C1 (stereo not drawn)	2%	-2%	49%[activator]
CSc1nc2cc(Oc3cccc(Cl)c3Cl)c(Cl)cc2[nH]1	10%	-28%	?
COC(=O)/C=C1\SC(=Nc2ccc(OC)cc2)NC1=O	-17%	-4%	?
COc1ccc(S(=O)(=O)NCCc2nnc3ccc(SCc4cccnc4)nn23)cc1	2%	0%	-6%
COc1ccc(C(=O)OCC(=O)c2ccc3[nH]c(=O)[nH]c3c2)c(OC)c1OC	0%	13%	-12%
C[C@@H]1COC(=O)[C@H](CC(=O)OC(C)(C)C)C/C=C\C[C@H](CC(=O)N(CCO)Cc2ccccc2)C(=O)N1	9%	-10%	-10%
COc1cccc(NC(=O)C(C)OC(=O)c2n[nH]c3ccccc23)c1 (stereo not drawn)	-10%	1%	18%
CCCCNC(=O)NNc1nc(Cl)cc(C)c1C#N	-1%	-1%	-23%
O=C(c1ccc(Cl)c(S(=O)(=O)NCc2cccnc2)c1)N1CCCC1	6%	0%	-8%
O=C(NCc1cc(C(F)(F)F)ccc1Cl)c1cccc2c1C(=O)c1ccc(N3CCOCC3)cc1S2(=O)=O	4%	-3%	?
Cc1ccccc1-c1cc(C(=O)NCc2cccs2)n(CC2CC(c3cccnc3)=NO2)n1 (stereo not drawn)	2%	6%	12%
O=C(OCC(=O)N1CCc2ccccc21)[C@@H]1CC(O)CN1S(=O)(=O)c1ccc(Cl)cc1 (stereo partly drawn)	-2%	2%	7%
Nc1ncnc2c1ncn2[C@@H]1O[C@H](CNS(=O)(=O)c2cc(S(=O)(=O)c3ccccc3)cs2)[C@@H](O)[C@H]1O	-9%	2%	-22%
O=C1N[C@@H](Cc2ccccc2)COC(=O)[C@H](Cc2ccc(F)cc2)C/C=C\C[C@H]1CC(=O)N(CCO)Cc1ccccc1	-2%	-2%	-26%
COc1cc(OC)c(C(=O)OCC(=O)N2CC(=O)Nc3ccccc32)cc1OC	0%	-2%	-10%
Cc1nn(-c2ccccc2)nc1C(=O)OCC(=O)N1CCC(C)CC1	0%	-3%	-14%
COCCNC(=O)c1cc(-c2ccccc2C)n(CC2CC(c3cccc([N+](=O)[O-])c3)=NO2)n1 (stereo not drawn)	13%	-5%	-3%
CC(C)(C)OC(=O)C[C@H]1C/C=C\C[C@H](CC(=O)NCCO)C(=O)N[C@@H](Cc2ccccc2)COC1=O	3%	4%	-17%
Cc1cccc2nc(-c3ccco3)c(Nc3ccccc3)n12	-1%	-17%	?
CCOc1ccc(N(C)S(=O)(=O)c2ccc(C)c(C(=O)Nc3nnc(C4CC4)s3)c2)cc1	0%	3%	-15%
O=C(CSc1ccc2c(c1)OCCO2)Nc1ncccc1O	9%	-5%	47%[activator]
CC(=O)c1c(C)[nH]c(C(=O)CN2C(=O)NC(C)(c3ccc(C)cc3)C2=O)c1C (stereo not drawn)	1%	-3%	-11%
Cc1ccc(OCCC(=O)Nc2ccc(C)c(S(=O)(=O)N3CCOCC3)c2)cc1	-3%	-10%	2%
O=C(COC(=O)c1cc(-c2ccccc2)nc2ccccc12)NC1CC1	5%	-1%	-24%
Cc1nc(SCC(=O)N(C)C2CCS(=O)(=O)C2)c(C#N)c(C)c1C (stereo not drawn)	0%	2%	-4%

Individual results from the entries so far:
`COc1cc(OC)c(C(=O)OCC(=O)N2CC(=O)Nc3ccccc32)cc1OC` – 2A StopGo = -10%
`O=C(CSc1ccc2c(c1)OCCO2)Nc1ncccc1O` – RE007 growth inh = 9%

Continued:
SMILES	RE007 growth inh	SARS PLpro yeast	2A StopGo
COC(=O)C1=C(c2ccc(Cl)c(C(F)(F)F)c2)C[C@@H]2CC[C@H]1N2C(=O)NCCNC(C)=O	0%	0%	-7%
O=C(CNS(=O)(=O)c1ccc(Cl)cc1)N1CCN(c2ccc(F)cc2)CC1	-2%	2%	?
CCOc1ccccc1/C=C(\C(=O)O)c1ccc(S(=O)(=O)N2CCCCC2)s1	-1%	0%	22%
O=C1/C(=C/c2ccccc2)SC(=S)N1N1C(=O)C2CC2C1=O (stereo not drawn)	2%	-1%	-6%
COc1ccc2sc(-c3ccccc3OC)c(-c3ccc(OC)c(F)c3)c2c1	1%	-8%	-21%
O=C(OCC(=O)N1CCC(Cc2ccccc2)CC1)c1ccccc1F	-5%	1%	44%[activator]
CCOC(=O)/C(N=Nc1ccc(C(=O)O)cc1[N+](=O)[O-])=C(\C)O	3%	-3%	-7%
COc1ccc(CNC(=O)COC(=O)c2ccc(OCC3CCCO3)cc2)cc1 (stereo not drawn)	-5%	-6%	-5%
O=C(c1n[nH]c(=O)c2ccccc12)N1CCN(S(=O)(=O)c2ccccc2Cl)CC1	-19%	5%	?
CCOC(=O)C1CCCN(c2cc(=O)n(C3CCCCC3)c(=O)[nH]2)C1 (stereo not drawn)	23%	-5%	-17%
COc1cc(/C=C/C(=O)OCC(=O)N2CCCC2)cc(OC)c1OC	-11%	-4%	9%
CC(=O)C1C(c2ccc(C)cc2)c2c(noc2C)CC1(C)O (stereo not drawn)	-3%	1%	1%
C[C@H](CO)N1C[C@H](C)[C@@H](CN(C)S(=O)(=O)c2ccc(F)cc2)Oc2ccc(NC(=O)CCC(F)(F)F)cc2C1=O	0%	0%	6%
COc1ccc(Nc2nc3c(C)cccn3c(=O)c2C=NCc2ccccc2)cc1	1%	-2%	-1%
CN(C)C(CNC(=O)c1ccc(Cl)c(S(=O)(=O)N2CCCCCC2)c1)c1ccccc1 (stereo not drawn)	-17%	-2%	?
C=CCOc1ccc(CN(C)C(=O)c2ccc(CNS(=O)(=O)c3ccc(C)c(C)c3)cc2)cc1	9%	2%	-15%
Cc1noc(C)c1NC(=O)Nc1cccc2c1O[C@@H](CN(C)C(=O)Nc1ccc3c(c1)OCO3)[C@@H](C)CN([C@H](C)CO)C2=O	8%	-24%	-11%
O=C(NNC(=O)c1ccc(F)c(S(=O)(=O)N2CCOCC2)c1)c1ccc([N+](=O)[O-])cc1	-6%	-2%	-19%
CCN(CC)S(=O)(=O)c1cc(NC(=O)C2CSC3(C)CCC(=O)N23)ccc1C (stereo not drawn)	-12%	0%	-24%
O=C(NCc1ccc(F)cc1)c1cccc2c1C(=O)c1ccc(N3CCC(Cc4ccccc4)CC3)cc1S2(=O)=O	4%	3%	?
CCCOc1ccc(C(=O)Nc2cc(S(=O)(=O)N3CCOCC3)ccc2N2CCOCC2)cc1	-6%	0%	11%
COc1ccc(CCNC(=O)c2cccc(S(=O)(=O)N3CCCC3)c2)cc1OC	-17%	-5%	-23%
COc1ccc(C2=CN(Cc3ccccc3)CCC2=O)cc1	4%	-9%	3%
CCCN=C1N(C)C[C@@H]2[C@@H]3C(=O)N(Cc4ccccc4)C(=O)[C@@H]3[C@](CC)(C(=O)OC)N12	-11%	15%	-9%
CC1CC(C)CN(C(=O)COC(=O)c2ccc3ncsc3c2)C1 (stereo not drawn)	-1%	-4%	-8%
Nc1ncccc1C(=O)OCC(=O)NC1CCCCCC1	2%	-1%	28%
O=[N+]([O-])c1ccc(C[n+]2ccccc2)cc1	-1%	-2%	14%
Cc1c(C#N)c(NC(=O)CCl)n(Cc2cccs2)c1C	4%	-1%	20µM*
NC(=O)c1ccccc1OCC(=O)Nc1cccnc1Cl	-5%	0%	17%
CCCCN(C(=O)CN(C)CC(=O)Nc1cccc(OC)c1)c1c(N)n(CCCC)c(=O)[nH]c1=O	-8%	-1%	-20%
CCOC(=O)C1=CN(Cc2cccc(F)c2)S(=O)(=O)NC1c1cccc(OC)c1 (stereo not drawn)	3%	3%	-2%
C=CCC[C@@H](Cc1ccc(F)cc1)C(=O)OC[C@@H](Cc1c[nH]c2ccccc12)NC(=O)[C@H](CC=C)CC(=O)N(CCO)Cc1ccccc1	-6%	19%	?
C[C@H]1CN([C@@H](C)CO)C(=O)Cc2cc(NC(=O)CCN3CCOCC3)ccc2O[C@@H]1CN(C)Cc1ccc(Oc2ccccc2)cc1	-12%	-11%	-28%
COC(=O)[C@H](C(C)C)N(Cc1ccccc1)S(=O)(=O)CCNC1CCCC1	-14%	-3%	-26%
COc1cc2nc(CN3CCN(S(=O)(=O)c4ccc(Br)cc4)CC3)[nH]c(=O)c2cc1OC	13%	1%	-26%
COc1ccc(C2=NN(C(=O)COC(=O)c3ccc(NC(=O)CC#N)cc3)C(c3ccco3)C2)cc1 (stereo not drawn)	2%	-6%	-11%
CN(CC1COc2ccccc2O1)C(=O)Cn1cc(C(F)(F)F)ccc1=O (stereo not drawn)	6%	-1%	-2%
CCOC(=O)NC(=O)CSc1ccc(S(=O)(=O)N(C)C2CCCCC2)cn1	-4%	-3%	-6%
COC(=O)CC/C(O)=C1\C(=O)CC(C)(C)CC1=NCCc1nc2ccccc2[nH]1	-10%	-2%	3%
COc1cc(S(=O)(=O)n2ccnc2)ccc1Br	-9%	-3%	-4%
O=C(N/N=C/c1ccc([N+](=O)[O-])cc1)c1ccc(NS(=O)(=O)c2cccs2)cc1	0%	0%	3%

Fetched by structure from the list above (6):
SMILES	RE007 growth inh	SARS PLpro yeast	2A StopGo
Cc1ccccc1-c1cc(C(=O)NCc2cccs2)n(CC2CC(c3cccnc3)=NO2)n1 (stereo not drawn)	2%	6%	12%
CCOc1ccc(N(C)S(=O)(=O)c2ccc(C)c(C(=O)Nc3nnc(C4CC4)s3)c2)cc1	0%	3%	-15%
Cc1cccc(C)c1NC(=O)c1ccc(N2CCCC2=O)cc1	3%	-5%	-24%
O=C(NCc1ccc(F)cc1)c1cccc2c1C(=O)c1ccc(N3CCC(Cc4ccccc4)CC3)cc1S2(=O)=O	4%	3%	?
O=[N+]([O-])c1ccc(C[n+]2ccccc2)cc1	-1%	-2%	14%
O=C(COC(=O)C1CC2CCCC(C1)C2=O)NC(=O)c1ccccc1 (stereo not drawn)	2%	-2%	-13%
